Bioassay records from PubChem.
HIV Env fusion: inhibitors of HIV-1 Env-driven cell-cell fusion, primary screen, HeLa-JRFL effector, CEM21 target cells, luciferase; inhibition, % at 12.3 µM; 1.1% of 360,000 active;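 active = mean replicate inhibition score of at least 50 and every replicate individually at or above 50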;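 note: 0% = plate neutral controls and 100% = maraviroc near 300 nM; one replicate is shown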
eIF4H FP inh: human eIF4H binding inhibitors, primary screen, translation initiation inhibitor project, biochemical, uHTS, fluorescence polarization. Eukaryotic translation initiation factor 4H (Homo sapiens), Q15056. eIF4H fluorescence polarization binding assay. inhibition, % at 35 µM. 0.94% of 290,000 active. AID 2012, 2009;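 active = 50% or more with normal probe brightness, or confirmed in later tests; about a fifth of its hits are not listed in these tables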;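 note: calls also rest on retests at 20 µM and on dose response follow-up; 0% = protein and probe with vehicle and 100% = probe without protein; strong numbers were not always called active; many hits fall short of the cut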
MT1-MMP act inh: blockers of MT1-MMP proenzyme processing, primary screen, HT1080 RFP-PRO-GFP cells, GFP/RFP fluorescence; GFP/RFP ratio fluorescence, overnight; percent of plate control window, DMSO zero; AID 651647, 2012; 0.061% of 360,000 active; GFP/RFP ratio change, % at 20 µM;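 active = GFP/RFP ratio change of at least 30% with cell ATP level not reduced by more than half and red fluorescence within 50% of control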; note: strong numbers were not always called active
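Test system: HT1080 cells expressing an RFP-PRO-GFP fluorescent reporter construct / Compound dosing: single-point 20 µM compound, 1% DMSO / Schedule: cells overnight before dosing, compound overnight, 37 °C, 5% CO2 / Evaluation: GFP/RFP fluorescence ratio / Control set: DMSO and RFP-L50D-GFP cell wells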
CSC inhib: cancer stem cell viability inhibitors, primary screen, luminescence | cancer stem cell-like cells viability | inhibition, % at 7.5 µM | 1.1% of 300,000 active;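 active = mean at 75% or more and at least half the replicates too; tested in HMLE shEcad cells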;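 note: 0% = median of negative and 100% = median of positive control wells; the first replicate is given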
Rce1 inh: yeast Rce1p protease inhibitors, primary screen, biochemical, fluorescence, cell-free homogeneous | yeast membranes, quenched prenylated peptide cleavage fluorescence | calls only | 0.27% of 290,000 active | AID 2563, 2010;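 active = fall in fluorescence gain of 50% or more versus controls, with final raw signal at or below 3038400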;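 note: plate controls were neutral control wells for no effect and wells lacking membranes for full effect; tested at 10 µM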
Target sequence (Q03530 whole entry, looked up): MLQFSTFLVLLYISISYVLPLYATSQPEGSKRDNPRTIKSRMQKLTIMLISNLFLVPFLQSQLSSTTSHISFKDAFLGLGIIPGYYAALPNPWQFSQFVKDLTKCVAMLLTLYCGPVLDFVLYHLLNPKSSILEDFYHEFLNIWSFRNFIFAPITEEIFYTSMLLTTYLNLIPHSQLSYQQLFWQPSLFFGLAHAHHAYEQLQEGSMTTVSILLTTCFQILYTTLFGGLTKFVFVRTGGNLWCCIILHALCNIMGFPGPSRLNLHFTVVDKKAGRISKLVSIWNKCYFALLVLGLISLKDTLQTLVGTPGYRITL
PABP polyA inh: PABP poly(A) RNA binding inhibitors, primary screen, biochemical, fluorescence polarization, uHTS; Polyadenylate-binding protein 1 (Homo sapiens), P11940; inhibition, % at 35 µM; 1% of 290,000 active; AID 2014, 2009;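 active = 50% or more with normal probe brightness, or confirmed in later tests; about a fifth of its hits are not listed in these tables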;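 note: calls also rest on retests at 20 µM and on dose response follow-up; controls were probe without protein and protein plus probe with vehicle; some compounds called inactive have numbers as strong as hits; many hits fall short of the cut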
Target sequence (P11940 whole entry, looked up): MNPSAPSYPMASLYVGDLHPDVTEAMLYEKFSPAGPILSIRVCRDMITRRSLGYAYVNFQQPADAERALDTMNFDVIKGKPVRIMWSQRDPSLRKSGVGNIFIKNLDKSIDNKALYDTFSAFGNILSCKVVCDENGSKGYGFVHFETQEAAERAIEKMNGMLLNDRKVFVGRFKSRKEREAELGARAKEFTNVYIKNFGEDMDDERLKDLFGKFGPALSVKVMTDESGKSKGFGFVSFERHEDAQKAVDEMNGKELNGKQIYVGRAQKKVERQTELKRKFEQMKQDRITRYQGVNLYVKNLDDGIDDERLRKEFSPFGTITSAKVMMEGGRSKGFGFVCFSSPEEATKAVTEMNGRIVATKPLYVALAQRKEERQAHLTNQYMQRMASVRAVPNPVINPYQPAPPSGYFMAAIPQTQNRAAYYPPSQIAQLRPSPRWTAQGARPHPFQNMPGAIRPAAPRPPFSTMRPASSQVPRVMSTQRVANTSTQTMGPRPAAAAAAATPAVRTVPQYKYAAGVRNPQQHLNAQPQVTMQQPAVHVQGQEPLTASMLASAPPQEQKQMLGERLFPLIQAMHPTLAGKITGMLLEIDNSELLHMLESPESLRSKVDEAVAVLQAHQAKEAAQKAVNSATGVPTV
Yeast UUG start: modulators of yeast start codon fidelity, primary screen, whole organism, S. cerevisiae, single point, plate reader. activity score, % at 18.7 µM. S. cerevisiae UUG-firefly luciferase reporter, luminescence/redox ratio. 0.13% of 350,000 active;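 active = replicate mean at a twofold rise or more, about +100% in these data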;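 note: firefly luciferase made from a UUG start codon reports start codon fidelity; reporter light over untreated wells divided by growth signal over untreated wells; some hits fall short of that in this replicate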
eIF4H FP inh retest: also measured in eIF4H FP inh; calls as there; inhibition, %; compound at 20 µM; confirmation average;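 mean of two retest wells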
PABP polyA inh retest: second read-out of PABP polyA inh, no call of its own (marks repeat the call); inhibition, %; compound at 20 µM; confirmation repeats;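 mean of two retest wells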
MT1-MMP act inh RFP: further read-out of MT1-MMP act inh, marked with its call; RFP signal change, %; measured here: RFP expression control read;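 0 = vehicle wells; hits needed this value within 50% of zero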
An asterisk follows results filed as active; i = inactive; nt = no result given; & = joins results of further samples.

SMILES	HIV Env fusion	eIF4H FP inh	MT1-MMP act inh	MT1-MMP act inh RFP	CSC inhib	Rce1 inh	PABP polyA inh	Yeast UUG start	others
Cc1ccc(N(C(=O)c2ccncc2)C2C=CS(=O)(=O)C2)cc1 (stereo not drawn)	-23	-15	1	14	-10	i	6	-13
CCOc1ccc(S(=O)(=O)Nc2ccc(C(=O)N/N=C(\C)c3ccc(-n4ccnc4)cc3)cc2)cc1	-6	9	-4	0	6	i	-14	nt
CN(Cc1ccccc1)C(=O)COC(=O)/C=C/c1ccc2c(c1)OCO2	nt	nt	2	2	-12	nt	nt	-1
CCC(C)N(C(=O)CSc1nc(-c2ccccc2)cs1)C1CCS(=O)(=O)C1 (stereo not drawn)	nt	0	-2	-5	-6	i	-9	9
CCOC(=O)N1CCC(Nc2c(NCCCN(C)Cc3ccccc3)c(=O)c2=O)CC1	20	-4	-1	-2	-7	i	10	-14
CSc1ccccc1OCc1cc(C(=O)N2CCN(C)C(c3ccccc3)C2)no1 (stereo not drawn)	8	-5	0	-2	1	i	-2	-17
CCCn1nnc(NC(=O)c2ccc3c(c2)OCO3)n1	-5	2	0	2	36	i	-4	nt
O=C(CCc1nnc(-c2ccsc2)o1)N1CCCCC1CCn1ccnc1 (stereo not drawn)	7	-4	4	-2	-14	i	-3	-13
O=C(Nc1ccncc1)C1CCN(S(=O)(=O)c2cccs2)CC1	0	-8	-2	-5	-12	i	-2	nt
Cc1noc(C)c1CSCC(=O)N(CC(C)C)c1c(N)n(Cc2ccccc2)c(=O)[nH]c1=O	nt	nt	1	2	-7	i	nt	nt
O=C(O)CC1Sc2nc3ccccc3n2C1=O (stereo not drawn)	nt	-10	0	3	-3	i	6	nt
O=C(NC1CCCCC1)c1ccc([N+](=O)[O-])cc1	-32	nt	1	-3	nt	nt	nt	-9
Cc1cccc(C)c1N1C(=O)C(Cl)=C(N2CCCC2)C1=O	0	-3	-1	5	21	i	0	-15
CSc1nccc(Oc2cccc(C#N)c2)n1	-1	-7	-4	-4	4	i	2	nt
Cc1ccc2nc(SCC(=O)c3ccc4c(c3)OCO4)[nH]c2c1	nt	-4	11	4	-20	i	9	-15
COc1ccc(CCCC(=O)N/N=C/c2ccc(C)cc2)cc1	33	6	0	0	4	i	9	nt
COc1ccc(C)cc1S(=O)(=O)N1CCN(C(=O)c2ncoc2-c2ccc(C)cc2)CC1	15	-8	1	2	-7	i	-7	5
O=C1C2C3C=CC(C3)C2C(=O)N1CCN1CCN(S(=O)(=O)/C=C/c2ccccc2)CC1 (stereo not drawn)	-2	-9	2	4	12	i	6	nt
CCCCCc1c(C)nc(Nc2ccccc2)[nH]c1=O	nt	-13	-1	-14	6	i	16	-5
Cn1c(SCC(=O)NCC2CCCO2)nnc1-c1ccc(Cl)cc1 (stereo not drawn)	nt	nt	3	5	-11	nt	nt	-12
O=C(CN1CCOc2ccccc21)N1CCC(Cc2ccccc2)CC1	-10	nt	1	-1	-8	i	nt	-7
Nc1nc2n(n1)C(=O)CC(c1ccc(Cl)cc1)N2 (stereo not drawn)	-8	6	1	6	nt	i	-5	nt
COc1ccc(NC2=C(Cl)C(=O)N(CCc3ccccc3)C2=O)c(OC)c1	-10	2	-1	1	-13	i	-3	-21
O=C1NC(=S)NC(=O)C1Nc1ccc(Cl)cc1	-16	nt	0	2	nt	nt	nt	-9
Cc1ccc(NC(=O)C2CC(=O)NC(N3CCc4ccccc43)=N2)cc1 (stereo not drawn)	-74	-2	1	-5	25	nt	-2	-7
CCOc1ccc(NC(=O)[C@@H](NC(=O)c2ccccc2)[C@@H](C)CC)cc1	nt	10	-20	-13	nt	i	9	nt
CCCCOc1ccccc1NC(=O)Cn1c(-c2nonc2N)nc2ccccc21	11	34	6	-5	61	i	-9	-3
CC(C)(C)c1cc(NCCCn2ccnc2)n2ncc(-c3ccccc3)c2n1	-80	12	-1	-3	59	i	-3	-25
Cc1ccccc1NC(=O)c1ccc(Cn2cc([N+](=O)[O-])cn2)o1	-7	2	1	0	2	i	8	nt
COCCNC(=O)[C@H](C)[C@H]1C[C@]1(C)[C@H](NC(=O)OCc1ccccc1)c1ccccc1	-21	-11	-4	-3	3	i	-14	-3
CCn1nccc1C(=O)Nc1ccc(C(=O)OC(C)C)cc1	-17	-5	0	-7	12	i	7	1
CC1(C(=O)NS(=O)(=O)c2ccccc2)CCN1C(=O)CCc1ccccc1 (stereo not drawn)	4	nt	0	4	nt	nt	nt	-5
O=C1N/C(=C/c2cccs2)C(=O)N1Cc1ccc(F)cc1	-8	-2	1	-2	nt	i	9	nt
CC(c1nccs1)N(C)C(=O)c1ccc(OC2CCN(CCc3ccccc3)CC2)cc1 (stereo not drawn)	15	6	0	-1	1	i	0	-11
COc1ccc(-c2nc3ccc(Cl)cn3c2Cc2ccsc2)cc1OC	-11	nt	3	5	nt	nt	nt	1
Cc1ccccc1OCC(=O)NNC(=O)Cn1[nH]c(=O)c2ccccc2c1=O	-2	nt	0	1	-9	nt	nt	-8
O=c1c2ccccc2nc(SCc2cc([N+](=O)[O-])cc3c2OCOC3)n1-c1ccccc1	19	-12	0	1	-16	i	-3	nt
COc1ccc(CCNC(=O)C2CCC(CNS(=O)(=O)c3ccc(F)cc3)CC2)cc1OC (stereo not drawn)	8	-11	3	3	nt	i	8	nt
CCn1c(=O)c(C(=O)NCc2ccc(Cl)cc2)c(O)c2ccccc21	-9	2	0	-7	nt	i	-3	-11
CCO[C@@H]1OC(C(=O)NC2CC2)=C[C@H](C(C)(C)C)[C@H]1CCCO	-25	-1	2	3	3	i	-11	-6
CCOC(=O)c1cnc2c(cnn2C)c1NCc1ccc(OC)cc1	-2	0	-1	-3	nt	i	-4	-4
Cc1cccc2sc(NC(=O)CN3C(=O)c4ccccc4C3=O)nc12	10	-1	0	0	-12	i	-13	nt
Cc1cc(C(F)(F)F)n(-c2nc(C(=O)O)cs2)n1	0	1.5*	1	5	-8	i	73*	-11	eIF4H FP inh retest=91*;PABP polyA inh retest=54*
COc1ccc(N(CC(=O)NCCSCc2ccco2)S(=O)(=O)c2ccccc2)cc1OC	nt	6	-2	0	-5	i	-1	16
Cc1c(NC(=O)CSc2ccccn2)c(=O)n(-c2ccccc2)n1C	nt	12	-1	2	-11	i	12	-14

4 structures out of the list, arranged by molar mass, highest first:
SMILES	HIV Env fusion	eIF4H FP inh	MT1-MMP act inh	MT1-MMP act inh RFP	CSC inhib	Rce1 inh	PABP polyA inh	Yeast UUG start	others
CC(c1nccs1)N(C)C(=O)c1ccc(OC2CCN(CCc3ccccc3)CC2)cc1 (stereo not drawn)	15	6	0	-1	1	i	0	-11
O=c1c2ccccc2nc(SCc2cc([N+](=O)[O-])cc3c2OCOC3)n1-c1ccccc1	19	-12	0	1	-16	i	-3	nt
CC1(C(=O)NS(=O)(=O)c2ccccc2)CCN1C(=O)CCc1ccccc1 (stereo not drawn)	4	nt	0	4	nt	nt	nt	-5
Cc1ccccc1OCC(=O)NNC(=O)Cn1[nH]c(=O)c2ccccc2c1=O	-2	nt	0	1	-9	nt	nt	-8

The results go on:
SMILES	HIV Env fusion	eIF4H FP inh	MT1-MMP act inh	MT1-MMP act inh RFP	CSC inhib	Rce1 inh	PABP polyA inh	Yeast UUG start	others
CNc1nc(NCCCN2CCCC2=O)c2sccc2n1	19	nt	4	1	nt	nt	nt	-2
Cc1nnc(NC(=O)CSc2nccn2-c2cccc(C)c2C)s1	-44	-3	5	-13	42	i	0	-8
CC1=CC(C)(C)n2c(O)c(N=N)c3cc(C)cc1c32	16	-8	-5	-7	-4	i	-10	13
CCOC(=O)c1ccc(N2C(=O)C(CC(N)=O)N(CCc3ccc(OC)c(OC)c3)C2=S)cc1 (stereo not drawn)	11	2	-2	2	27	i	-2	-19&2
CCc1nc2ccc(C(=O)Nc3cccc(NS(C)(=O)=O)c3)cn2c1N(CC)CCOC	6	nt	1	4	nt	nt	nt	-16
Cc1occc1C(=O)Nc1nnc(C2CCCCC2)s1	-31	-7	nt	nt	-1	i	4	-15
O=C(CNC(=O)c1cccs1)NCC(=O)OCc1cccc(Cl)c1	-337	-4	-2	3	-1	i	0	-21
Cc1ccc(S(=O)(=O)N2C[C@H]3n4c(=O)ccc(=O)n4C[C@H](OC(=O)NC4CCCC4)[C@@]3(O)C2)cc1	7	nt	-5	-5	nt	nt	nt	1
NC(=O)c1nsc(C(=O)N(c2ccc3c(c2)OCCO3)C(C(=O)NCC2CCCO2)c2ccc(F)cc2)c1N (stereo not drawn)	17	-9	-7	-5	7	i	-7	-20
CC(=O)N1CCC(C(=O)N2CCN(S(=O)(=O)c3ccc(Cl)s3)CC2)CC1	-10	-5	-1	1	-8	i	-6	-10
Cc1c(C(=O)N(C)C)sc2nc(-c3ccccn3)[nH]c(=O)c12	nt	18	3	7	14	i	6	-17
CC(=O)NS(=O)(=O)c1ccc(NC(=O)/C=C/c2ccc(C)o2)cc1	-4	10	-7	3	-6	i	23	nt
O=C(c1ccc(S(=O)(=O)Nc2cccc(C(F)(F)F)c2)cc1)N1CCC1	-3	4	2	-11	-10	i	5	-13
Cc1ccsc1C(=O)OCC(=O)N(C)C1CCCCC1	nt	nt	1	2	1	nt	nt	-39
CCN1C(=O)[C@H]2[C@@H](c3ccc(C)cc3)N3C(=O)N(c4cccc(Cl)c4)C(=O)[C@@]3(Cc3ccccc3)[C@H]2C1=O	0	nt	1	-3	-2	i	nt	4
CC(=O)NC(=S)Nc1ccccc1F	-2	-3	-2	0	-16	i	-1	nt
O=C(CCc1nc(-c2ccccc2Cl)no1)NC1CCCCC1	-2	-10	-1	0	nt	i	7	-15
COc1cccc(Cn2c(=O)c3ccccc3n3nc(C)cc23)c1	8	-8	1	0	1	i	-7	nt

Random excerpt: 4 records from the list
SMILES	HIV Env fusion	eIF4H FP inh	MT1-MMP act inh	MT1-MMP act inh RFP	CSC inhib	Rce1 inh	PABP polyA inh	Yeast UUG start	others
Cc1ccc(N(C(=O)c2ccncc2)C2C=CS(=O)(=O)C2)cc1 (stereo not drawn)	-23	-15	1	14	-10	i	6	-13
Cc1ccc(NC(=O)C2CC(=O)NC(N3CCc4ccccc43)=N2)cc1 (stereo not drawn)	-74	-2	1	-5	25	nt	-2	-7
Cn1c(SCC(=O)NCC2CCCO2)nnc1-c1ccc(Cl)cc1 (stereo not drawn)	nt	nt	3	5	-11	nt	nt	-12
CC(=O)NS(=O)(=O)c1ccc(NC(=O)/C=C/c2ccc(C)o2)cc1	-4	10	-7	3	-6	i	23	nt

Only part of the results is shown; rates above refer to the full screens.
